Screening data: PubChem BioAssay, several laboratories
A1 inh: inhibitors of the anti-apoptotic protein A1, read as caspase activation | AID 2462 | caspase activation, % (concentration not given with the values) | MEF A1-2A-BIM cells, Caspase-Glo 3/7 luminescence, 3 h; percent of clofoctol response, vehicle zero | 0.066% of 330,000 active;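 active = over half of replicate activation scores above 10%, or exactly half above 10 with the replicate mean above 10; inconclusive = replicate mean below 10 yet half the replicates above 10; inactive = over half of replicates below 10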;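 note: wells of about 30 µL received 50 nL stock; many hits fall short of the cut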
ALR H2O2 inh: human ALR oxidase inhibition via reduced H2O2 | AID 485317 | purified ALR, DTT oxidation, H2O2 HRP-luminol luminescence | inhibition, % (test concentration not listed) | 3.8% of 290,000 active;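 active = mean and each replicate at 75% or more; inconclusive = only one of the two met; inactive = neither met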;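 note: stock transfer was 7.5 nL into about 7.5 µL; 0% = neutral wells and 100% = wells with inactivated enzyme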
Calb FLC: affects C. albicans growth with fluconazole. C. albicans CaCi-2 (fluconazole-resistant clinical isolate) + fluconazole, Alamar Blue growth, 48 h. growth inhibition, % (no concentration beside the values). 0.57% of 300,000 active. AID 1979;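 active = most replicates above 75%; inconclusive = exactly half above 75%; inactive = most below 75%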;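 note: all wells also contain fluconazole at 8 µg/ml as a sub-toxic cotreatment; 0% = median of DMSO wells and 100% = median of geldanamycin control wells; wells of about 8 µL received 7.5 nL stock; the first replicate is given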
T cruzi inh: blocks replication of Trypanosoma cruzi | T. cruzi beta-gal in NIH3T3, luminescence, 90 h | inhibition, % (concentration not given with the values) | 1.4% of 300,000 active;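 active = mean inhibition across valid replicates above about 55%, limit read from the data; inconclusive = mean below that limit but half or more replicates reach it; inactive = mean below it, under half of replicates reach it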;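 note: signal also drops with host cell toxicity which is not excluded here; 0% = plate median of DMSO wells and 100% = zero luminescence signal; higher percent means less beta-gal luminescence so fewer parasites; stock transfer was 50 nL into about 50 µL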
Beta cell apopt: beta cell apoptosis inhibition | 0.8% of 300,000 active | protection from apoptosis, % (no concentration beside the values) | INS-1E cytokine-induced death, ATP luminescence, 48 h; percent of positive-control rescue, neutral wells zero;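 active = all replicates at 75% or more, or half of them and the mean; inconclusive = half reach 75% but not the mean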;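 note: 0% = cytokine-treated negative control wells and 100% = positive control rescue; higher means more ATP so stronger rescue from cytokine killing; wells of about 40 µL received 100 nL stock; the first replicate is given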
Ecoli rRNA inh: inhibitors of bacterial rRNA selective over humanized ribosomes; GFP signal change (wild-type ribosome), % (test concentration not listed); 1.6% of 350,000 active; E. coli WT GFP vs humanized-ribosome RFP mutants, fluorescence, 24 h; active compounds read low; DMSO median 0, no signal -100;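 active = significant combined selectivity score with lowered wild-type GFP, culture density cut under 30%, mutant RFP and density less affected; inactive = any of these conditions unmet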; note: one replicate is shown; some compounds called inactive have numbers as strong as hits
Beta2AR agonist: activates human beta-2 adrenergic receptor causing internalization; P07550; Am2.2-beta2AR cells, FAP receptor internalization, flow cytometry; reference of the scale not given here; AID 504454; 0.43% of 340,000 active; response, % (test concentration not listed);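 active = response above a set limit, near 3 SD of response in nonfluorescent compounds, cut at about 42% in these data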;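 note: stock transfer was 100 nL into about 11 µL; a reference agonist was the positive control; negative values mostly stem from fluorescent compounds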
LANA-H2A inh: blocks KSHV LANA binding to histone H2A/H2B | Q9QR71 | cell-free LANA-H2A/H2B peptide, fluorescence polarization | inhibition, % (concentration not given with the values) | 0.6% of 320,000 active | AID 2629; in the data active = inhibition mostly above about 10%, no sharp cut-off; inactive = mostly below about 6.7%;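 note: stock transfer was 7.5 nL into about 10 µL; 0% = median of vehicle wells and 100% = median of positive control wells; one replicate is shown; the record names a cut of 25% in any replicate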
Target sequence (Q9QR71 whole entry, looked up): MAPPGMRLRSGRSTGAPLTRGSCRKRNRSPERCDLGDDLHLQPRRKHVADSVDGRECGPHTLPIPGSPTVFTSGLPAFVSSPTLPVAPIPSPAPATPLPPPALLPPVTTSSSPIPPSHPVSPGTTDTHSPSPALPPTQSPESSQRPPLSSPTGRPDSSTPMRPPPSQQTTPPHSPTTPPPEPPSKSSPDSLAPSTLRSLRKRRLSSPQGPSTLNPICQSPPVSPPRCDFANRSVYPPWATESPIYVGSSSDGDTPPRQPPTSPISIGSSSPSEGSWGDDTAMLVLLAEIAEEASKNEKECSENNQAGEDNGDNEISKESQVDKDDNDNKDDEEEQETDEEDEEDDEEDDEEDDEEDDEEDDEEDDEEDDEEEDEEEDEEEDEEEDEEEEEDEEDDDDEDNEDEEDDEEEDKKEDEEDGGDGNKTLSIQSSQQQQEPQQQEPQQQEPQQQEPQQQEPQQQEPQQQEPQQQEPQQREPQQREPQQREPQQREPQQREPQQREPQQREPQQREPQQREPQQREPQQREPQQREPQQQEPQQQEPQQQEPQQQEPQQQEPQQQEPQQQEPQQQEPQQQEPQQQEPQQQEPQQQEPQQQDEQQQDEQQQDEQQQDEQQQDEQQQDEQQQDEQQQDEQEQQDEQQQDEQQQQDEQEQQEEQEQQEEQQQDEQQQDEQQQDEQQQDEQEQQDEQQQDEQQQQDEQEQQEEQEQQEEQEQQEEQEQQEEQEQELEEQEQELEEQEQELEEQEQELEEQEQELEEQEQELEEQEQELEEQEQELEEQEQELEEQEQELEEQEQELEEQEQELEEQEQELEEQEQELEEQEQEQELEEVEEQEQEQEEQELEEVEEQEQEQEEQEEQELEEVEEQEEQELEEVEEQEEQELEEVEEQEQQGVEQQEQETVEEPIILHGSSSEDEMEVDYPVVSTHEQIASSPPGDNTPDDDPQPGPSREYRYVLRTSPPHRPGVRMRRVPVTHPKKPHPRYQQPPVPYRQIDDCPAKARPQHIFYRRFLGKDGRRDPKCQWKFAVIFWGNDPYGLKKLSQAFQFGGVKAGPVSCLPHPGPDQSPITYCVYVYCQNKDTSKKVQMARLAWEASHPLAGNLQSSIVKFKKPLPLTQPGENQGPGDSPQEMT
Ecoli rRNA inh OD600: second read-out of Ecoli rRNA inh, no call of its own (marks repeat the call); OD600 change, %; measured here: OD600 growth;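 optical density of the mix in the first replicate; 0 = DMSO median and -100 = no signal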
Ecoli rRNA inh RFP: recorded beside Ecoli rRNA inh, whose call it bears; RFP signal change, %; measured here: RFP humanized mutant strains;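 first replicate; 0 = DMSO median and -100 = no signal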
Starred values were filed as active, the others as inactive; ? = inconclusive; . = no result given.

Start of the data: the first five records (preview)
The line under a structure holds: T cruzi inh, Beta cell apopt, Ecoli rRNA inh OD600, ALR H2O2 inh, Calb FLC, Ecoli rRNA inh, Ecoli rRNA inh RFP, Beta2AR agonist, A1 inh, LANA-H2A inh
Cc1nnc(SCc2nc3scc(-c4ccccc4)c3c(=O)[nH]2)s1
→ -10, 3, 10, -5, 2, 7, 10, 0, 0.5, -7.3
O=C(C[n+]1ccccc1)N/N=C/c1ccc(F)cc1
→ -10, -4, 16, -14, -35, 20, 2.0, -2, -0.5, -0.7
C=CCONC(=O)c1cc(OCC(F)(F)F)ccc1OCC(F)(F)F
→ -7, -3, ., -31, 12, ., ., 0, 0.3, 0.7
COc1cc2cnc(-c3cccnc3)cc2cc1OC
→ ., -19, 5, -9, ., -7, 0.9, -4, -3.4, -8.3
COc1ccccc1-c1nnc2n1N=C(c1ccc(O)c(O)c1)CS2
→ -34, 30, ., 99*, ?, ., ., 21, -0.7, 5.9

The whole of this part, repeating the preview:
The line under a structure holds: T cruzi inh, Beta cell apopt, Ecoli rRNA inh OD600, ALR H2O2 inh, Calb FLC, Ecoli rRNA inh, Ecoli rRNA inh RFP, Beta2AR agonist, A1 inh, LANA-H2A inh
Cc1nnc(SCc2nc3scc(-c4ccccc4)c3c(=O)[nH]2)s1
→ -10, 3, 10, -5, 2, 7, 10, 0, 0.5, -7.3
O=C(C[n+]1ccccc1)N/N=C/c1ccc(F)cc1
→ -10, -4, 16, -14, -35, 20, 2.0, -2, -0.5, -0.7
C=CCONC(=O)c1cc(OCC(F)(F)F)ccc1OCC(F)(F)F
→ -7, -3, ., -31, 12, ., ., 0, 0.3, 0.7
COc1cc2cnc(-c3cccnc3)cc2cc1OC
→ ., -19, 5, -9, ., -7, 0.9, -4, -3.4, -8.3
COc1ccccc1-c1nnc2n1N=C(c1ccc(O)c(O)c1)CS2
→ -34, 30, ., 99*, ?, ., ., 21, -0.7, 5.9
CCCCCc1nnc(NC(=O)c2ccc(=O)n(C)n2)s1
→ -7, -3, -9, 5, 1, -7, 0.1, -3, -0.6, 0.3
COc1ccc(COC(=O)C2=C(C)NC(=O)NC2c2cc(OC)ccc2OC)cc1 (stereo unspecified)
→ -7, 5, 0, ., 1, 4, -1.0, 14, -0.4, 0.6
Cc1cc2ccccn2c1C(=O)c1ccc(C#N)cc1
→ 8, -1, 13, -11, 39, -1, 1.4, -6, 1.5, -1.0
Cc1ccc(C2CC(C(F)(F)F)n3ncc(C(N)=O)c3N2)cc1 (stereo unspecified)
→ -6, 1, ., -23, -6, ., ., -9, 0.9, 6.6
Cc1ccn2cc(C(=O)Nc3nnc(C)s3)nc2c1
→ -34, 2, ., -5, 3, ., ., -9, 0.0, -1.0
COC(=O)c1cccc(COC(=O)c2ccc(N(C)C)cc2)c1
→ -10, 0, ., ., 3, ., ., 6, -1.1, -5.0
CCSc1nc(=S)n(-c2ccccc2)c(C)c1C(C)=O
→ -4, -5, ., 0, 10, ., ., 8, 0.1, -5.1
O=C(COC(=O)CNC(=O)c1ccc(Cl)c([N+](=O)[O-])c1)NC(=O)CN1CCCC1=O
→ -9, -3, 6, -3, 4, 9, 0.1, 10, -0.6, 1.9
Cc1cccc(NC(=O)CN2C(=O)S/C(=C\c3ccccn3)C2=O)c1
→ -4, 4, 18, -6, 37, 14, -0.5, 3, 1.4, 5.8
CCc1nnc(NS(=O)(=O)c2ccc(NC(=S)NC(=O)c3ccncc3)cc2)s1
→ 10, -4, 0, 31, 1, 12, 1.2, 9, -0.2, -1.7
CN(c1ccc(C(=O)Nc2ccc(F)cc2F)cc1)S(=O)(=O)c1ccccc1
→ 7, 8, -18, 1, 10, -14, -3.3, 10, 0.2, -9.5
NC1=NC(=O)/C(=C\c2cc([N+](=O)[O-])ccc2Cl)S1
→ -44, -13, 0, -2, -3, -6, -0.6, 16, 0.5, 3.7
CC(=O)N1c2ccc(S(=O)(=O)N3CCC(C(=O)Nc4cccc(C)c4)CC3)cc2CC1C (stereo unspecified)
→ 34, 10, -7, -6, -3, -4, -0.8, 4, 1.3, 1.6
Cc1ccc(C(=O)Oc2ccc(-c3nnco3)cc2)o1
→ 11, -4, 12, -2, ., 10, 0.9, -7, 0.1, 0.7
CCOC(=O)C(CC)Sc1nc2c(c(=O)[nH]c(=O)n2C)n1C/C=C(/C)Cl (stereo unspecified)
→ -7, -11, ., -11, -3, ., ., 14, -1.2, -2.0
Cc1c(-c2ccccc2)nc2ccccc2c1C(=O)O
→ 2, -5, 5, 38, -7, 8, -3.9, 6, 0.1, 4.1
O=C(O)COc1ccccc1C=NNc1ccc([N+](=O)[O-])cc1S(=O)(=O)Nc1ccc(Cl)cc1
→ ., -8, -30, 31, ., -23, -6.4, -2, 3.8, 10
CCN=C1S/C(=C\c2ccc(OCC)c(OC)c2)C(=O)N1CC
→ 24, 6, ., -3, 17, ., ., 4, -0.5, -0.5
CCCCC(C(=O)OCC)C(N)Cc1ccc(F)cc1 (stereo unspecified)
→ -14, -3, 9, -21, -49, 8, -1.7, 2, -0.6, 20*
O=S(=O)(Nc1ccc(Cl)nn1)c1ccccc1
→ -5, -4, 23, -8, -2, 27, 2.4, -2, -0.4, -5.3
Cn1c(SCc2c(Cl)cccc2Cl)nnc1-c1ccc2nonc2c1
→ 13, -14, -12, 2, 43, -21, 4.1, 0, -0.3, 0.0
COC(=O)c1ccc(C(C(=O)NC2CCCCC2)N(Cc2ccccc2)C(=O)Cc2cccs2)cc1 (stereo unspecified)
→ 2, -4, ., -2, -5, ., ., -5, 0.1, -2.2
CN(C)CCn1c2c(c(SCC(=O)Nc3ccccc3C(F)(F)F)nc1=O)CCCC2
→ 24, -4, 1, 0, 6, 2, -0.2, -12, 0.3, -2.7
CCOC(=O)c1[nH]c(C)c(C(=O)N2CCN(c3ccccc3)CC2)c1C
→ 2, -8, ., 98*, 11, ., ., -3, 0.7, -2.2
CC1CN(C(=O)c2cc(-c3ccncc3)nc3ccccc23)CC(C)O1 (stereo unspecified)
→ ., -6, ., -5, ., ., ., 8, 0.9, -1.9

New compounds follow:
The line under a structure holds: T cruzi inh, Beta cell apopt, Ecoli rRNA inh OD600, ALR H2O2 inh, Calb FLC, Ecoli rRNA inh, Ecoli rRNA inh RFP, Beta2AR agonist, A1 inh, LANA-H2A inh
Cn1c(N)c(C(=O)COC(=O)CCCc2nc3ccccc3s2)c(=O)n(C)c1=O
→ 6, -3, -25, 2, 12, -23, -2.4, 1, 0.4, 9.1
O=C(COC(=O)CCSc1ccccc1)Nc1ccccc1
→ ., 1, -3, ., ., 0, 0.8, 6, -0.3, -4.2
CCOC(=O)[C@@H]1C(c2c(OC)cc(OC)cc2OC)=NO[C@@H]1C(=O)OCC
→ -8, -6, ., 18, -15, ., ., 7, 0.4, -0.3
COC(=O)COc1ccc(S(=O)(=O)Nc2cc([N+](=O)[O-])ccc2C)cc1
→ -11, 0, 8, 1, -29, 21, 0.9, 2, -0.4, -3.3
CC(C)N1C/C(=C/c2ccsc2)C(=O)/C(=C/c2ccsc2)C1
→ 23, -1, -8, -19, -9, -9, 2.5, 34, 0.2, -1.9
Cn1c(N/N=C/c2cccs2)nc2c1c(=O)n(Cc1ccccc1)c(=O)n2C
→ -11, 0, ., ?, -5, ., ., -11, 0.6, -2.1
Cc1cc(C)c(C#N)c(SCc2ccccc2C(=O)O)n1
→ -1, 2, ., 5, 11, ., ., -1, 0.9, 1.5
Cc1ccc(NC(=O)CNC(=O)N2CC(=O)Nc3ccccc32)cc1F
→ 6, ., -9, -2, -1, -10, -2.4, 1, 0.1, -2.7
Cc1ccc(C(=O)OCCN2CCN(c3ncc(C(F)(F)F)cc3Cl)CC2)cc1
→ -2, -10, ., -20, 3, ., ., 4, -0.4, -0.4
CN(CC(=O)Nc1cccc2c1CCCC2)S(=O)(=O)c1ccc(Cl)cc1
→ -9, 5, ., 0, 1, ., ., -3, 0.1, 4.0
COc1cc(NC(=S)NNC(=O)C(C)(C)O)cc(OC)c1
→ 3, -3, 1, 35, ?, 1, 1.8, 4, 0.5, -2.6
O=C(CN1C(=O)COc2ccc(Cl)cc21)N1CCc2ccccc21
→ 12, 1, ., -6, -15, ., ., -10, 1.5, 8.7
O=C(Nc1ccccc1Cl)c1ccc(S(=O)(=O)NCC2CCCO2)cc1 (stereo unspecified)
→ -13, -3, 6, 0, -5, 2, -4.0, 2, 0.1, -4.1
Clc1ccc(SCCn2ccnc2)cc1
→ 18, -7, ., -1, 1, ., ., -2, 0.1, -2.5
Clc1ccccc1-c1ccc2ncnc(NCc3ccc4c(c3)OCO4)c2c1
→ ., 3, -6, -1, ., -3, 4.2, 5, -1.7, 0.1
CCN(C(=O)C1CCN(S(=O)(=O)c2ccc3c(c2)oc(=O)n3C)CC1)c1cccc(C)c1
→ -4, -1, 0, -1, -4, 0, -6.9, -19, 0.1, 1.4
O=C(Nc1ccc(OC(F)(F)F)cc1)Oc1ccccc1N1CCOCC1
→ 4, 2, -41, 0, -7, -47, -13, 1, 0.1, 0.8
CN(C)c1cccc(C(=O)OCc2cc(=O)oc3cc(O)ccc23)c1
→ -17, 4, ., 20, 3, ., ., -1, 0.7, 1.4
COc1cccc(NC(=O)COC(=O)CCS(=O)(=O)c2ccc(C)cc2)c1
→ -8, -4, 8, 65, 6, 14, 2.1, -7, 0.0, -6.7
Cn1c(SCC(=O)NCc2ccc3c(c2)OCO3)nnc1-c1c[nH]c2ccccc12
→ -13, -2, -8, ., -2, -6, -1.4, -2, -0.3, 3.4
O=C(NCc1cccnc1)c1cn(CCc2ccccc2)nn1
→ ., -3, ., -4, ., ., ., 2, -0.7, -1.9
CC(=O)Nc1ccc(-c2csc(-c3cccnc3)n2)cc1
→ -14, -2, 17, 37, 6, 11, 0.6, -6, -6.2, 0.6
O=C1CCc2cc(S(=O)(=O)N3CCC(C(=O)NCc4ccccn4)CC3)ccc2N1
→ -2, 1, -7, 24, -2, 11, -3.7, 6, 0.5, 2.5
COc1ccc(-c2nc(C)sc2CC(=O)O)cc1OC
→ -3, ., 15, -6, ?, 11, 0.8, -1, 0.0, 6.3
COc1ccc(-c2cc(=O)oc3cc(OC(C)C(=O)Nc4ccc(CN5CCOCC5)cc4)ccc23)cc1 (stereo unspecified)
→ 9, ., -14*, 6, -5, -20*, 3.5*, 0, -0.4, -2.7
Nc1nc(NC(=O)C(Cl)(Cl)Cl)nn1-c1ccccc1
→ -10, -4, 12, -4, -27, 5, 0.0, 0, 0.3, -1.1
CC1(C)CC2CC(C)(CN2S(=O)(=O)c2cccc(C(=O)OCC(N)=O)c2)C1 (stereo unspecified)
→ 18, -2, -11, 3, -4, -1, -3.7, 13, -0.6, -4.4
CC1(C)CC(=O)C2=C(C1)OC1=C(C2)C(=O)CC(C)(C)C1
→ 2, -2, ., -3, 0, ., ., -5, 0.8, -6.4
O=C(NCCOCCOCCNC(=O)c1ccccc1)c1ccccc1
→ -12, -10, 12, -3, -5, 2, -1.4, -5, 1.1, -0.8
O=C(NCc1ccccc1Cl)c1csc2c1CCCCC2
→ 18, 14, ., -5, -1, ., ., 0, -0.1, 1.4

This is a subset; the hit share may differ from the screen's.
